Bioassay records: PubChem, National Center for Advancing Translational Sciences (NCATS)
gsp agonist: qHTS for Agonist of gsp, the Etiologic Mutation Responsible for Fibrous Dysplasia/McCune-Albright Syndrome: qHTS; gsp mutant cells, cAMP HTRF, 30 min; control for the full effect not named in the record; Potency, µM (titrated, usually from 76.9 µM), for the others: top-dose activation (cAMP increase), most hits filed as activators; 0.13% of 340,000 active; AID 624287, 2012; active = well fitted activation curve with a large enough effect; inconclusive = small, poorly fitted or top-dose-only effect, or another doubt; inactive = no such curve, though single readings can be large or run the other way; cell line not stated here;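 note: phosphodiesterase inhibitor Ro 20-1724 added with compounds to block cAMP breakdown; potency is the fitted concentration of half-maximal effect; nearly all actives have a fitted effect of over 60% in size; about a fifth of the inactives were tested at one dose only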
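Cells stably selected in G418 were plated at 2000/well, grown 16-24 hr, then given compounds in DMSO with the PDE inhibitor […] (300 uM solution added) for 30 min at 37C; cAMP was read by HTRF.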
TRPV1 potentiator: HTS Assay for Compounds that Act as Potentiators of the Vanilloid Receptor 1. Transient receptor potential cation channel subfamily V member 1 (Homo sapiens), Q8NER1. potentiation, % at 8.33 µM. 0.02% of 320,000 active. TRPV1-expressing cells, Fluo-8 calcium influx, capsaicin EC20 potentiation; host cell line not named in the record; control for the full effect not named in the record. AID 540277, 2011; active means potentiation above 80%; inconclusive means 30% to 80%; inactive means below 30%; note: 0% is about no effect
Target sequence (Q8NER1 whole entry, looked up): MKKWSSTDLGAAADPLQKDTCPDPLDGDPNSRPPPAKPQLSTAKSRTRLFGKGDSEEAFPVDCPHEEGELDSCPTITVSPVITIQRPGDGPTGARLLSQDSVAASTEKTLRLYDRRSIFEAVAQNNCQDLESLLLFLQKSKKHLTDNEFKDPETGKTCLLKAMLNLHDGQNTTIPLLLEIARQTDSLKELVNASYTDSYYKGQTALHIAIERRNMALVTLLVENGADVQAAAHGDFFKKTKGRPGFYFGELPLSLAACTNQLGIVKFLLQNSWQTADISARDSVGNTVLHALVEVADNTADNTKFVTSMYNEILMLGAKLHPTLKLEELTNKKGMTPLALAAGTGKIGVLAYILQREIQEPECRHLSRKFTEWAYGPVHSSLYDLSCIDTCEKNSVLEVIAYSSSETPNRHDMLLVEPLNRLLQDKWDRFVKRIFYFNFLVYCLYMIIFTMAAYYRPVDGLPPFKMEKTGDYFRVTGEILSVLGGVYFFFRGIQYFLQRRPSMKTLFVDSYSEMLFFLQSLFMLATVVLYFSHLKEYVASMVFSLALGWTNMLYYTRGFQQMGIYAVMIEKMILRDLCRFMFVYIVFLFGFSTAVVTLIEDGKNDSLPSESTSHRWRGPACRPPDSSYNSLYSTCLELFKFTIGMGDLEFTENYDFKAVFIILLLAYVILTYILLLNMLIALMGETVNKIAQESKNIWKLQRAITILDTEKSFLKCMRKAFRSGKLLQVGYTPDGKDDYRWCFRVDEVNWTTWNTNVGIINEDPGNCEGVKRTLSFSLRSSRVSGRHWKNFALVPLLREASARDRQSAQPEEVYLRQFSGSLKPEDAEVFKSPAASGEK
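Cells expressing TRPV1 were dye-loaded with Fluo-8 and read kinetically: 10 s baseline, 3 min after compound (agonist portion), then 2 min after EC20 capsaicin (allosteric enhancer portion). Calcium-bound dye fluorescence at 480/520 nm.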
ClpP mod: qHTS Assay for Activators of ClpP | purified B. subtilis ClpP, FRET peptide cleavage, 20 min | Potency, µM (doses to about 57.5 µM), for inactives: at the top dose activity change, negative = active | 1.9% of 340,000 active; active = well fitted falling curve with a large enough effect; inconclusive = small, poorly fitted or top-dose-only effect; inactive = no such curve, though single readings can be large or run the other way; note: potency is the fitted concentration of half-maximal effect; the source files actives as falling curves though it sought activators and does not explain the sign; nearly all actives have a fitted effect of over 65% in size; many hits overshoot -100%
Target sequence (P80244 whole entry, looked up): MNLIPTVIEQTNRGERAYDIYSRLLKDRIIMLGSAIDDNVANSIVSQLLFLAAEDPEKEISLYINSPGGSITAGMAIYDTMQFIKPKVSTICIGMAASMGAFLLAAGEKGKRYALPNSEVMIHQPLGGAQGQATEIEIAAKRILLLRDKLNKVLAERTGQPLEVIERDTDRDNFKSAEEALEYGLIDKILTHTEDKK
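FRET quenching reversal measured ClpP activation: 10 microg/mL B. subtilis ClpP at pH 8 with the FRET-FV decapeptide, read at 430 nm after 320 nm excitation. The 20-min minus 0-min signal was scaled between DMSO/no-enzyme wells and ADEP (5.8 microM final).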
Sfp PPTase inh: qHTS Assay for Inhibitors of Bacillus subtilis Sfp phosphopantetheinyl transferase (PPTase) | 4'-phosphopantetheinyl transferase ffp (Bacillus subtilis), Q9F4F7 | Biochemical Sfp PPTase activity, qHTS | Potency, µM, for the others: max response, negative = inhibition, actives largely listed as inhibitors | 3.5% of 310,000 active; active = well fitted inhibition curve with a large enough effect; inconclusive = small, poorly fitted or top-dose-only effect, or another doubt; inactive = no such curve, though single readings can be large or run the other way;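 note: the enzyme is Sfp with the accession as filed and its product quenches rhodamine fluorescence; potency is the fitted concentration of half-maximal effect; 0% = enzyme reaction without inhibitor and -100% = no enzyme wells; top concentration of the series not given in the record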
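Fluorescence-quenching assay with 15 nM Sfp, 5 uM rhodamine-CoA and 12.5 uM BHQ-2-labelled ybbR peptide in pH 7.6 Hepes/MgCl2 buffer. Enzyme was pre-incubated with compound for 15 min at room temperature. Rate was taken from the 30-min fluorescence change (525/598 nm).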
gsp antag: qHTS for Antagonists of gsp, the Etiologic Mutation Responsible for Fibrous Dysplasia/McCune-Albright Syndrome: qHTS; Potency, µM (top dose mostly 76.9 µM), for inactives: at the highest dose activity change, negative = inhibition, usual class: inhibitors; gsp-mutant cells, cAMP HTRF, 30 min; control for the full effect not named in the record; AID 624288, 2012; 0.4% of 340,000 active; active = falling curve of any shape with a large fitted effect; inconclusive = falling curve, mostly with a smaller effect; inactive = flat or rising curve; cell line not stated here;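 note: intracellular cAMP measured with PDE inhibitor Ro 20-1724 present during compound exposure; potency is the fitted concentration of half-maximal effect; % is set by controls: 0 for no effect and ±100 for the full control effect; nearly all actives have a fitted effect of over 65% in size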
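Cells in G418 medium, seeded 16-24 h, 37C; buffer exchange to DPBS + 1 mM CaCl2, 0.5 mM MgCl2, 0.05% BSA; cpds in DMSO + […] (300 uM stock), 30 min 37C; HTRF cAMP detection.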
CtBP-E1A inh: qHTS Assay for Inhibitors of the CtBP/E1A Interaction | CtBP / adenovirus E1A interaction (AlphaScreen) | AlphaScreen GST-E1A/His-CtBP binding, 1536-well; active compounds read low; control for the full effect not named in the record | activity change, % (concentration not given with the values) | 0.49% of 340,000 active | AID 651724, 2012; in the data active means activity change below about -65%; inconclusive means about -30% to -65%; inactive means above about -30%; note: % is set by controls: 0 for no effect and ±100 for the full control effect
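In 5 uL wells, 23 nL compound meets equimolar GST-E1A and His-CtBP (5X stock 125 nM each) for 2 h, 37 °C. Beads (5X, 50 ug/mL) then 1 h, 37 °C, dark.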
Menin MLL FP FL: qHTS Assay for Inhibitors Targeting the Menin-MLL Interaction in MLL Related Leukemias: Competition With Fluorescein Labeled MLL-derived Peptide | Fluorescence polarization, fluorescein-MLL peptide displacement from menin | 290,000 tested, under 10 active | FP activity change, % at 61.4 µM; inconclusive = falling polarisation curve, or a change in total fluorescence; inactive = total fluorescence flat and polarisation flat or rising; no compound was filed as active; the % refers to the polarisation; negative = inhibition;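 note: % of control where 0% means no effect; inhibitors lower the polarisation; unlabelled MLL peptide was the positive control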
The depositor's hits bear a star; ? = inconclusive; / = not tested or not shown; & = joins results of further samples; [ ] = remark or other dose.

Every second line gives: gsp agonist, TRPV1 potentiator, ClpP mod, Sfp PPTase inh, gsp antag, CtBP-E1A inh, Menin MLL FP FL
- Cc1c(S(=O)(=O)N2CCCC(C)C2)c(=O)n(C)c(=O)n1C (stereo not given)
    13%[15.4 µM], 6, /, /, 8%, 1, /
- Cc1ccccc1-c1cc(C(=O)NCc2cccs2)n(CC2CC(c3cccnc3)=NO2)n1 (stereo not given)
    /, -3, -1.4%, /, -26%, -1, /
- COc1ccc(/C(C)=N/NC(=O)CNC(=O)/C=C\c2ccccc2OC)c(OC)c1
    -12%, 2, -28%, 29%, 3%, /, -0.3
- CCOC(=O)C1CCN(S(=O)(=O)c2ccc(Br)c(OCC)c2)CC1
    -27%, -1, -1.7%, -12%, -14%, 5, 0.6
- O=C(NCc1cc(C(F)(F)F)ccc1Cl)c1cccc2c1C(=O)c1ccc(N3CCOCC3)cc1S2(=O)=O
    ?, /, -2.0%, /, 0%, 4, /
- COc1ccc(/C=N/NC(=O)CNC(=O)c2ccncc2)cc1
    -11%, -14, /, -1%, 3%, 7, -0.4
- O=C(N/C(=C\c1ccc([N+](=O)[O-])cc1)C(=O)N1CCOCC1)c1cccc(Br)c1
    ?, -5, -1.2%, 4%, -11%, -1, /
- O=C(CSCC(=O)N1CCOCC1)Nc1ccccc1
    -10%, 4, 8.1%, 3%, 14%, -2, 3.2
- NC(=S)NN=C1c2ccccc2-c2cc(Br)ccc21
    -21%, /, -1.3%, /, -35%, ?, /
- COc1ccc(CCCc2n[nH]c(=S)o2)cc1C
    -37%[inhibitor], 0, /, 21%, -15%, 8, -16
- CCn1c(SCC(=O)Nc2nc3ccc(OC)cc3s2)nc2c1c(=O)n(C)c(=O)n2C
    24%, -2, -0.7%, -3%, -11%, 2, 3.3
- O=C(c1ccc(Cl)c(S(=O)(=O)NCc2cccnc2)c1)N1CCCC1
    1%, 14, -0.9%, /, 10%, /, /
- CCSc1nc(C)c(CC)c(C)c1C(N)=O
    -67%[inhibitor], -1, -1.5%, 5%, 4%, -15, 1.2
- COc1ccc(NC(=S)c2ccccc2)cc1
    -12%, -6, 1.5%, 4%, -3%, 5, 3.8
- O=C(NCCc1ccc(Cl)cc1)C1CCCN1C(=O)Nc1ccccc1 (stereo not given)
    -37%[inhibitor], 4, 0.1%, -2%, -3%, /, 0.2

Every second line gives: gsp agonist, TRPV1 potentiator, ClpP mod, Sfp PPTase inh, gsp antag, CtBP-E1A inh, Menin MLL FP FL
- Cc1ccccc1C(=O)NCC(=O)OC1CCCCC1=O (stereo not given)
    -7%[15.4 µM], 2, ?, /, -2%, -22, /
- Oc1c(Cl)cc(Cl)c2c1NCCC2
    1%[15.4 µM], 6, -0.6%, 16µM*, 0%, 4, -2.0
- CCCCNC(=O)NNc1nc(Cl)cc(C)c1C#N
    22%, -8, 0.8%, -27%, 2%, 0, -1.9
- O=C(NC(NC(=S)Nc1ccccc1C(=O)O)C(Cl)(Cl)Cl)c1ccccc1 (stereo not given)
    2%[15.4 µM], ?, /, 35µM*, 2%, 0, 1.2
- COc1cc(NC(=O)Cn2nc(Cc3cccnc3)c3ccccc3c2=O)cc(OC)c1OC
    -25%, ?, -0.3%&-2.8%, -15%, 7%, -8, -1.4
- COc1ccccc1N(CC(=O)NCc1ccco1)C(=O)CCC(=O)Nc1ccccn1
    -10%[15.4 µM], 4, /, 9%, 17%, -13, 3.1
- CN1CCN(C(=S)C(=O)NCc2ccccc2)CC1
    5%[15.4 µM], 11, -1.7%, 5%, 7%, 5, -0.5
- CC1(C)Cn2c(nnc2-c2ccccc2)S1
    9%, 7, -2.0%, -5%, 14%, -7, 2.7
- COc1cccc(NC(=O)C(C)OC(=O)c2n[nH]c3ccccc23)c1 (stereo not given)
    -19%, 20, -4.7%, /, 2%, /, /
- Cc1cccc(C)c1OC(=O)c1ccccc1
    -13%, /, /, /, -10%, 27, /
- O=C(CSc1nc2ccccc2c(=O)n1Cc1ccco1)c1ccccc1
    -11%, -3, -2.1%, ?, -7%, 8, 2.1
- O=C(c1cc2cc(F)ccc2[nH]1)N1CCCC(Nc2ccc(F)cc2)C1 (stereo not given)
    -12%[15.4 µM], -9, -0.1%, -7%, -6%, -8, /
- COc1ccc(CCNC(=O)CN2C(=O)NC3(CCCCC3C)C2=O)cc1 (stereo not given)
    -9%, /, /, /, -3%, 9, /
- O=C(O)CC1SC(=O)N(Cc2ccccc2)C1=O (stereo not given)
    12%, 1, -0.7%, 22%, -6%, 2, 3.2
- O=C(Cc1ccccc1)NCC(=O)N1CCCC1
    -10%[15.4 µM], -8, /, 17%, -8%, -1, -0.7

Every second line gives: gsp agonist, TRPV1 potentiator, ClpP mod, Sfp PPTase inh, gsp antag, CtBP-E1A inh, Menin MLL FP FL
- CC1=C(C(=O)Nc2ccccc2C(=O)NC2CCCCC2C)SCCO1 (stereo not given)
    ?, -14, -0.2%, 5%, 0%, -9, /
- CCc1nc2scc(-c3ccccc3)c2c(=O)n1N
    11%, 18, -1.6%, -13%, 8%, 5, 8.4
- Cc1ccc(NC(=O)COC(=O)c2ccc([N+](=O)[O-])o2)cc1S(=O)(=O)N1CCCCC1
    12%[15.4 µM], 4, 1.5%, 16%, -2%, 1, 3.5
- COc1cccc(CNC(=O)CN2C(=O)CSc3ccc(S(=O)(=O)N4CCOCC4)cc32)c1
    ?, -3, -2.2%, 18%, 6%, -2, -0.7
- O=C1C(=O)N(CCO)C(c2cccc(F)c2)/C1=C(\O)c1ccc(Cl)cc1 (stereo not given)
    ?, -6, -2.6%, 18%, 18%, 3, 3.5
- Cc1ccc(-n2c(C)n[nH]c2=S)cc1
    ?, 13, 1.4%, -2%, 4%, 0, 8.1
- O=C(Cn1nnc2ccccc2c1=O)N[C@@H](Cc1c[nH]c2ccccc12)C(=O)O
    -14%, 8, -2.9%, 10%, 6%, /, -1.9
- CCOC(=O)COc1ccc2c(C)cc(=O)oc2c1C(=O)c1ccccc1
    -28%[15.4 µM], 4, /, 8%, -13%, /, -1.5
- O=C(OCC(=O)N1CCc2ccccc21)[C@@H]1CC(O)CN1S(=O)(=O)c1ccc(Cl)cc1 (stereo not given in full)
    -10%, /, 0.1%, /, 1%, /, /
- COc1ccc(CN(C)C(=O)c2ccc(Oc3ccccc3)cc2)cc1F
    -5%, -11, /, -7%, -20%, 22, 0.5
- CCN1CCN(C(=O)/C=C/c2ccc(OC)cc2)CC1
    ?, -8, /, 9%, -6%, 27, 6.8
- COc1cc(/C=C2\CCC(C3CCCC3)C2=O)ccc1OC(C)C (stereo not given)
    -12%, -2, /, 15%, -1%, 11, 5.0
- CCOC(=O)C1=C(c2ccccc2)NC(=S)NC1c1cc([N+](=O)[O-])ccc1OC (stereo not given)
    ?, -4, -24%, 9%, -12%, -4, 0.1
- COC(=O)c1ccccc1NC(=O)CSCC(=O)Nc1ccc(F)cc1
    14%, -19, -3.0%, 18%, -1%, 4, 0.6
- COc1ccc(C(=O)N2CCN(C(=O)c3ccc(-c4ccccc4)cc3)CC2)cc1OC
    -7%[15.4 µM], -5, /, 7%, -12%, 3, -1.2

Every second line gives: gsp agonist, TRPV1 potentiator, ClpP mod, Sfp PPTase inh, gsp antag, CtBP-E1A inh, Menin MLL FP FL
- CC(=O)Oc1cccc(NC(=O)c2cccc(C(=O)Nc3cccc(OC(C)=O)c3)c2)c1
    -32%[inhibitor], 21, -0.4%, 6%, -17%, ?, 1.2
- CCCCC(=O)Nc1ccc(C(=O)N2CCN(C)CC2)cc1
    -14%, -15, -0.4%, 4%, 18%, 2, 1.2
- Cc1c(NC(=O)C2CCCN2S(=O)(=O)c2cccc3nsnc23)cccc1C(=O)O (stereo not given)
    -81%[inhibitor], /, -4.4%, 16%, 8%, 0, 7.7
- O=C(CN1C(=O)c2ccccc2C1=O)NC1CCS(=O)(=O)C1 (stereo not given)
    -36%[inhibitor], /, 1.3%, /, /, 2, /
- CNC(=O)c1csc(Cc2c(Cl)sc3ccc(Cl)cc23)n1
    -5%, -7, 0.3%, ?, -15%, /, 7.9
- CCNc1nc(NCC)nc(OCC(=O)O)n1
    3%[15.4 µM], 8, /, 14%, 11%, 7, 1.8
- CN(Cc1ccc2nonc2c1)Cc1nc(CC2CC2)no1
    19%[15.4 µM], 1, /, 4%, 10%, 11, -0.8
- O=C(O)COc1ccccc1C=NNC(=O)c1ccc(NS(=O)(=O)c2cccs2)cc1
    20%, /, -0.9%, /, -5%, 6, /
- O=[N+]([O-])c1ccccc1/C=C/CN1CCC(O)CC1
    1%, 7, -1.8%, -24%, 9%, -1, -0.7
- C=CCNC(=O)c1onc(CSc2cccc(C)c2)c1C(=O)O
    /, 4, -0.4%, -2%, 1%, 4, -7.2
- N#CCC(=O)N/N=C/c1ccc(N2N=C(c3ccccc3)CC2c2ccccc2)cc1 (stereo not given)
    0%, ?, /, 14%, -6%, 51, ?
- Nc1nc(N)nc(-c2cccc(Br)c2)n1
    0%, /, -4.7%, /, 7%, -18, /
- Cc1cc(-c2nc3ccccc3s2)ccc1N
    9%, /, ?, /, 3%, 3, /
- Cc1cc(NC(=O)CSc2nc3cc4c(cc3c(=O)n2CCc2ccccc2)OCO4)no1
    16%, -12, 2.6%, 6%, 19%, 14, -0.7
- CC1=C(C(=O)N(C)C)CC(CC(=O)NCCCCc2ccccc2)C(=O)N1CCC1=CCCCC1 (stereo not given)
    17%, /, -0.2%, /, /, -1, /
- Cc1onc(-c2ccccc2Cl)c1C(=O)Nc1ccccc1
    -37%[inhibitor], -4, -4.1%, 16%, -4%, -4, 3.9

Rows were taken by chance; about 5.3% have a hit in one of these screens.
